From PubChem
Sfp inh: qHTS Assay for Inhibitors of Bacillus subtilis Sfp phosphopantetheinyl transferase (PPTase). actives 3.5% (n = 310,000). Potency, µM, for inactives: max response, negative = inhibition, hits mostly inhibitors. AID 1490, 2009. Biochemical Sfp PPTase activity, qHTS. 4'-phosphopantetheinyl transferase ffp (Bacillus subtilis), Q9F4F7; active = well fitted inhibition curve with a large enough effect; inconclusive = small, poorly fitted or top-dose-only effect, or another doubt; inactive = no such curve, though single readings can be large or run the other way;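 also: the enzyme is Sfp with the accession as filed and its product quenches rhodamine fluorescence; potency is read from the fitted curve at half-maximal effect; 0% = enzyme reaction without inhibitor and -100% = no enzyme wells; top concentration of the series not given in the record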
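Compounds were incubated with enzyme (final 15 nM) for 15 min at room temperature before substrate addition started the reaction. Fluorescence at 525 nm excitation, 598 nm emission was recorded immediately and after 30 minutes.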
Menin MLL FP FL: qHTS Assay for Inhibitors Targeting the Menin-MLL Interaction in MLL Related Leukemias: Competition With Fluorescein Labeled MLL-derived Peptide. Fluorescence polarization, fluorescein-MLL peptide displacement from menin. FP activity change, % at 61.4 µM. 290,000 tested, under 10 active. AID 1766, 2009; inconclusive = falling polarisation curve, or a change in total fluorescence; inactive = total fluorescence flat and polarisation flat or rising; no compound was filed as active; the % refers to the polarisation; negative = inhibition;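 also: % of control where 0% means no effect; inhibitors lower the polarisation; unlabelled MLL peptide was the positive control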
An asterisk follows results filed as active; ? = inconclusive; . = not tested or not shown; & = joins results of further samples; [ ] = remark or other dose. A portion of the library; count on the stated rates, not on these rows.

Sfp inh	Menin MLL FP FL	compound
14%	.	COCCNC(=O)COc1ccc(OCCNC[C@H](O)COc2ccccc2)cc1
0%	.	CC(N)(C(=O)O)c1ccc(P(=O)(O)O)cc1 (centres undefined)
56µM*	.	O=C1c2ccccc2CCC1CNCCc1ccc(O)cc1 (centres undefined)
32µM*	.	N[C@H](CS)C(=O)O
15%&9%	.	C1CCC(NC(=NC2C3CC4CC(C3)CC2C4)N2CCOCC2)CC1 (centres undefined)
15%	.	N[C@@H](Cc1cc(I)c(Oc2ccc(O)cc2)c(I)c1)C(=O)O
?	.	CC[C@@H](C)[C@H](NS(=O)(=O)c1cccc2ccccc12)C(=O)N[C@H](C=O)Cc1c[nH]c2ccccc12
5%	.	O=c1ccn([C@@H]2O[C@H](COP(=O)(O)OP(=O)(O)OP(=O)(O)O)[C@@H](O)[C@H]2O)c(=O)[nH]1
2%	.	O=c1ccn([C@@H]2O[C@H](COP(=O)(O)O)[C@@H](O)[C@H]2O)c(=O)[nH]1
15%	.	CNC(=O)[C@H]1O[C@@H](n2cnc3c(NCc4ccc(N)cc4)ncnc32)[C@H](O)[C@@H]1O
7%	.	COc1c(O)c2c(=O)cc(OC)c3c4c(OC)cc(=O)c5c(O)c(OC)c(C[C@@H](C)OC(=O)c6ccccc6)c(c(c1C[C@@H](C)OC(=O)Oc1ccc(O)cc1)c23)c54
7%	.	OC[C@H]1O[C@@H](n2cnc3c(N[C@H]4C[C@H]5CC[C@@H]4C5)ncnc32)[C@H](O)[C@@H]1O
?	.	O=C1CC2(CCCC2)CC(=O)N1CCCCNCC1COc2ccccc2O1 (centres undefined)
?	.	N#Cc1cc2c(OCC(O)CN3CCN(C(c4ccccc4)c4ccccc4)CC3)cccc2[nH]1 (centres undefined)
23%	.	NC(C(=O)O)c1cc(O)c(Cl)c(O)c1 (centres undefined)
9%	.	CN1[C@@H](CC(=O)c2ccccc2)CCC[C@@H]1C[C@@H](O)c1ccccc1
24%	.	CCCCC[C@H](O)/C=C/[C@H]1[C@H](O)CC(O)[C@@H]1C/C=C\CCCC(=O)O (some centres undefined)
20%&18%	.	CC1(C)Oc2ccc(C#N)cc2[C@@H](OC2=CC(=O)CC2)[C@@H]1O
9%	.	CC[N+]1(C)C2CCC1CC(OC(=O)[C@H]1CCC(C(=O)OC3CC4CCC(C3)[N+]4(C)CC)(c3ccccc3)c3ccccc31)C2 (some centres undefined)
?	.	CC(C)=CCN1CCC2(CCc3ccccc32)CC1
4%	.	O=C(O)CCc1cc(I)c(O)c(I)c1
12%	.	CN1[C@H](CC(=O)c2ccccc2)CCC[C@H]1C[C@@H](O)c1ccccc1
22%	.	O=C(C1CCCCC1)N(CCN1CCN(c2ccccc2CO)CC1)c1ccccn1
6%	.	NC(C(=O)O)(c1ccc(P(=O)(O)O)cc1)C1CC1 (centres undefined)
50µM*	.	N[C@H](C(=O)O)C1C(C(=O)O)C1C(=O)O (some centres undefined)

Next part
Sfp inh	Menin MLL FP FL	compound
27%	.	Cc1nccn1CC1CCC2C(C1=O)c1ccccc1N2C (centres undefined)
?	.	COc1c(C=O)c(O)cc2c1C(=O)c1ccccc1C2=O
-1%	.	COc1ccc2[nH]cc(CCNC(=O)C3CC3)c2c1
2%&13%	.	N#CC(C#N)=C(N)/C(C#N)=C/c1ccc2[nH]ccc2c1
50µM*	.	CC(C)=CC[C@@H](O)C1=CC(=O)c2c(O)ccc(O)c2C1=O
79µM*	.	C[C@@H](C[C@H](N)C(=O)O)C(=O)O
17%	.	CC[C@H](C)[C@H](NC(=O)[C@H](CCCN=C(N)N)NC(=O)[C@H](CCCN=C(N)N)NC(=O)[C@H](CC(C)C)NC(=O)[C@H](Cc1ccccc1)NC(=O)CNC(=O)CN)C(=O)N[C@@H](CCCN=C(N)N)C(=O)N1CCC[C@H]1C(=O)N[C@@H](CCCCN)C(=O)N[C@@H](CC(C)C)C(=O)N[C@@H](CCCCN)C(=O)O
?	.	CC(N)(COP(=O)(O)O)C(=O)O (centres undefined)
21%	.	OCc1cc2c(cn1)[nH]c1ccccc12
.	3.3	CCCCCCCCCC(=O)NC(CN1CCOCC1)[C@H](O)c1ccccc1 (some centres undefined)
.	4.8	[N-]=[N+]=Nc1ccc(C(=O)CSC[C@H](NC(=O)CC[C@H](N)C(=O)O)C(=O)NCC(=O)O)cc1
.	0.2	Nc1ncnc2c1nc(Sc1ccc(Cl)cc1)n2[C@H]1O[C@@H]2COP(=O)(O)O[C@H]2[C@@H]1O
.	-0.2	CSc1nc(N)c2ncn([C@@H]3O[C@H](COP(=O)(O)OP(=O)(O)O)[C@H](O)[C@H]3O)c2n1
.	6.5	NCC(O)C1CCCCCCC1 (centres undefined)
.	2.2	COc1ccccc1N1CCN(CCCCNS(=O)(=O)c2cccc3c(N(C)C)cccc23)CC1
.	-2.5	CC(O)[C@@H](O)[C@H]1CNc2nc(N)[nH]c(=O)c2N1 (some centres undefined)
.	5.9	N=C(N)c1ccc(OCCCCCOc2ccc(C(=N)N)cc2)cc1 (tested in a mixture with another compound)
.	0.0	CC1CN(S(=O)(=O)c2cccc3cnccc23)CCN1 (centres undefined)
.	-12	Cc1cc(N)c2ccccc2[n+]1CCCCCCCCCCCCCC[n+]1c(C)cc(N)c2ccccc21
.	1.1	CC(=O)O[C@H]1CC2(C)[C@@H](C[C@@H](O)[C@H]3[C@@]4(C)CC[C@@H](O)[C@@H](C)[C@@H]4CC[C@@]32C)C1=C(CCC=C(C)C)C(=O)O (some centres undefined)
.	-1.8	C#CC(N)CCC(=O)O (centres undefined)
.	?	CN(C)C1C(=O)C(C(N)=O)=C(O)[C@@]2(O)C(=O)C3=C(O)c4c(O)ccc(Cl)c4[C@@H](O)C3C[C@@H]12 (some centres undefined)
.	6.8	C[C@]12C=CC(=O)C=C1CCC1C2=CC[C@]2(C)[C@@H](C(=O)CN3CCN(c4cc(N5CCCC5)nc(N5CCCC5)n4)CC3)CC[C@@H]12 (some centres undefined)
.	?	N#CC(Cc1ccc(O)c(O)c1)C(=O)N1CCc2ccccc21 (centres undefined)
.	-1.5	CNc1ncnc2c1ncn2[C@@H]1O[C@H](CO)[C@H](O)[C@H]1O

Further results
Sfp inh	Menin MLL FP FL	compound
.	3.1	C#C[C@]1(O)CC[C@H]2C3CCC4=Cc5oncc5CC4(C)C3CCC21C (some centres undefined)
.	6.4	CC(C)(C)NCC(O)COc1nsnc1N1CCOCC1 (centres undefined)
.	0.2	Fc1ccc(C(OCCCc2cnc[nH]2)c2ccc(F)cc2)cc1
.	1.2	NC(=NCc1ccc(Cl)c(Cl)c1)NC(=O)c1nc(Cl)c(N)nc1N
.	-2.0	NC(=O)C(=O)O
.	2.1	CC(=O)C(C)=O
.	-1.7	COc1ccc2c(c1)c(CC(=O)O)c(C)n2C(=O)c1ccccc1
.	-2.2	COC(=O)c1c(-c2cc(OC)c(OC)c(OC)c2)c2ccc(OCc3ccccn3)cc2c(=O)n1-c1ccc(N)cc1
.	2.1	CC(C)C[C@H](NC(=O)[C@H](O)[C@H](N)Cc1ccccc1)C(=O)O
.	3.6	C[C@H](Cc1ccccc1)Nc1ncnc2c1ncn2[C@@H]1O[C@H](CO)[C@H](O)[C@H]1O
.	7.4	CN[C@H](CC(C)C)C(=O)N[C@H]1C(=O)N[C@@H](CC(N)=O)C(=O)N[C@H]2C(=O)N[C@H]3C(=O)N[C@H](C(=O)N[C@H](C(=O)O)c4cc(O)cc(O)c4-c4cc3ccc4O)[C@H](O)c3ccc(c(Cl)c3)Oc3cc2cc(c3O[C@@H]2O[C@H](CO)[C@@H](O)[C@H](O)[C@H]2O[C@H]2C[C@](C)(N)[C@H](O)[C@H](C)O2)Oc2ccc(cc2Cl)[C@H]1O
16%	2.4	O=S(=O)(O)CCCS(=O)(=O)O
-11%	0.4	N=c1ccn2c(n1)OCC1C2O[C@@H](O)[C@H]1O (some centres undefined)
-5%	-12	CN1CCN(c2ncc3nc(-c4ccc(Cl)cc4)c(=O)n(C)c3n2)CC1
18%	0.0	CC(=O)NCCNc1nc(-c2cccc(C#N)c2)nc2ccccc12
16%	10	Nc1nc2c(nc(Br)n2[C@@H]2O[C@H]3COP(=O)(O)O[C@H]3[C@@H]2O)c(=O)[nH]1
-11%	4.3	CC(C)C[C@H](NC(=O)[C@H](Cc1c[nH]c2ccccc12)NC(=O)[C@H](CCCCN)NC(=O)CNC(=O)[C@H](CC(C)C)NC(=O)[C@H](CO)NC(=O)[C@@H](N)Cc1cnc[nH]1)C(=O)NCC(=O)N[C@@H](Cc1cnc[nH]1)C(=O)N1CCC[C@H]1C(=O)N[C@@H](CC(=O)O)C(=O)N[C@@H](CCCCN)C(=O)N[C@@H](Cc1ccccc1)C(=O)O
-5%	-0.1	O=C(c1csnn1)N1CCC2(CC1)CN(c1ccncc1)C2
5%	-1.7	C=CN1CCCC1=O
-11%	-5.1	Cc1nc2cnc(Nc3ccccc3)nc2n(CCc2ccccc2)c1=O
12%	-2.2&1.7	C=CC1(C)CC(=O)C2(O)C(C)(O1)C(OC(C)=O)C(O)C1C(C)(C)CCC(O)C12C (centres undefined)
7%	-2.0	O=C(c1csnn1)N1CCC[C@@]2(CCN(c3ccccc3)C2)C1
10%	-2.0[24.8 µM]	CC1(C)O[C@@H]2C[C@H]3[C@H]4C[C@H](F)C5=CC(=O)CC[C@]5(C)[C@@H]4[C@H](O)C[C@]3(C)[C@]2(C(=O)CO)O1
25µM*	-1.2	CCCCCCNC(=O)Nc1ccc(S(=O)(=O)Nc2ccc(CCNC[C@H](O)COc3ccc(O)cc3)cc2)cc1
4%&14%	-1.4&1.1	COCC1=C2c3ccccc3[C@@H]3CNC(=O)C3(C(=O)OC)C[C@@H]2n2c(=O)n(-c3ccccc3)c(=O)n2C1 (some centres undefined)

Other compounds
Sfp inh	Menin MLL FP FL	compound
4%	2.5[24.8 µM]	COc1ccc(C[C@H](N)C(=O)N[C@@H]2[C@H](O)[C@H](n3cnc4c(N(C)C)ncnc43)O[C@@H]2CO)cc1
0%	-3.3	CC[C@H](C)[C@H](NC(=O)[C@H](CC(=O)O)NC(=O)[C@H](CC(C)C)NC(=O)[C@H](Cc1cnc[nH]1)NC(=O)[C@H](C)NC(=O)[C@H](Cc1ccccc1)NC(=O)[C@H](Cc1ccc(O)cc1)NC(=O)[C@@H](NC(=O)[C@H](C)NC(=O)[C@H](CCC(=O)O)NC(=O)[C@H](CCC(=O)O)NC(=O)[C@H](CC(=O)O)NC(=O)CCC(=O)O)C(C)C)C(=O)N[C@H](C(=O)N[C@@H](Cc1c[nH]c2ccccc12)C(=O)O)[C@@H](C)CC
7%	5.6	c1cn(-c2ncnc3ccc(-c4ccoc4)cc23)cn1
9%	-1.9[11.7 µM]	COC(=O)NC(c1ccccc1)[C@]1(C(C)=O)CCCC1=O (some centres undefined)
-7%	?	COC(=O)C1=CO[C@@H](C)[C@@H]2CN3CCc4c([nH]c5ccccc45)[C@@H]3C[C@H]12
-9%	2.1	COc1ccccc1CNc1ncnc2ccc(-c3cccc(NS(C)(=O)=O)c3)cc12
4%	-7.3	COCCn1c(=O)c(-c2ccc(Cl)cc2)nc2cnc(OC)nc21
0%&28%&5%	-11	CCCCC[C@H](O)/C=C/C=C\CCCCCCCC(=O)O
9%	-23	COc1ccc(CC(N)C(=O)N[C@H]2[C@@H](O)[C@H](n3cnc4c(N(C)C)ncnc43)O[C@@H]2CO)cc1 (some centres undefined)
-23%	?	CN1CCN(c2ncncc2-c2ccoc2)CC1
8%	-2.8	O=C(c1ccco1)N1CCC2(CC1)CCN(c1ccc(-c3ccccc3)cc1)CC2
4%	0.2	COc1ncc2nc(-c3ccc(F)cc3)c(=O)n(CCC#N)c2n1
16%	-0.3[24.8 µM]	CCOC(=O)C1=C(C)NC(C)=C(C(=O)OC)[C@@H]1c1cccc([N+](=O)[O-])c1
-7%	-2.5	COc1ccccc1CCn1c(=O)c(-c2cccc(Cl)c2)nc2cncnc21
34%[activator]	2.2	CS(=O)(=O)Nc1cccc(-c2ccc3ncnc(NCCN4CCOCC4)c3c2)c1
50µM*	2.0	COc1ccc2c(c1)OC(C)(C)C(c1ccccc1)C2c1ccc(OCCN2CCCC2)cc1 (centres undefined)
25%&4%	1.6&0.9[11.7 µM]	C[C@@H](c1ccccc1)N1C(=O)[C@H]2[C@@H]3[C@H](O)[C@H](O)CC(=O)[C@H]3CC[C@H]2C1=O
-2%	2.3	COc1ccc(CNc2ccnc(-c3ccccc3CN(C)C)n2)c(OC)c1
